LANA-H2B inh = blockers of LANA interaction with H2A/H2B – biochemical, FP readout, HTS, primary screen | 320,000 tested, 0.6% active | cell-free LANA-H2A/H2B peptide, fluorescence polarization | AID 2629, 2010 | inhibition, % (concentration not given with the values); in the data active = inhibition mostly above about 10%, no sharp cut-off; inactive = mostly below about 6.7%;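 note: stock transfer was 7.5 nL into about 10 µL; 0% = median of vehicle wells and 100% = median of positive control wells; one replicate is shown; the record names a cut of 25% in any replicate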
B2AR ag = beta2AR agonists driving receptor internalization, primary screen, cell-based, FAP fluorogen, flow cytometry; Beta-2 adrenergic receptor (Homo sapiens), P07550; Am2.2-beta2AR cells; reference of the scale not given here; response, % (concentration not given with the values); 340,000 tested, 0.43% active;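 active = response above a set limit, near 3 SD of response in nonfluorescent compounds, cut at about 42% in these data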;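 note: stock transfer was 100 nL into about 11 µL; a reference agonist was the positive control; negative values mostly stem from fluorescent compounds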
Target sequence (P07550 whole entry, looked up): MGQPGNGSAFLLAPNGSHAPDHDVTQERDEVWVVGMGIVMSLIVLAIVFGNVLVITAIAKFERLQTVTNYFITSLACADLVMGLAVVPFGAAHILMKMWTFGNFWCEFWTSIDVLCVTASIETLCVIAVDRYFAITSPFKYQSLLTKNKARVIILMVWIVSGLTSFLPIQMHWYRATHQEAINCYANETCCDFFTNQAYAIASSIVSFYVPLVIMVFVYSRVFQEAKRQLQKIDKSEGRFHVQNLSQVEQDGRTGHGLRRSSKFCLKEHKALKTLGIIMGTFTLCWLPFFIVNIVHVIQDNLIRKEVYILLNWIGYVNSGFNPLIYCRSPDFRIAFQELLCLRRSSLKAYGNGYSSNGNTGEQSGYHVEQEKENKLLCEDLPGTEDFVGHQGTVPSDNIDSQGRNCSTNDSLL
Beta cell apopt = inhibitors of cytokine-induced beta cell apoptosis, primary screen, luminescence | AID 435005, 2010 | 300,000 tested, 0.8% active | INS-1E cytokine-induced death, ATP luminescence, 48 h; percent of positive-control rescue, neutral wells zero | protection from apoptosis, % (concentration not given with the values);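 active = all replicates at 75% or more, or half of them and the mean; inconclusive = half reach 75% but not the mean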;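 note: 0% = cytokine-treated negative control wells and 100% = positive control rescue; higher means more ATP so stronger rescue from cytokine killing; wells of about 40 µL received 100 nL stock; the first replicate is given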
T cruzi inh = inhibitors of intracellular T. cruzi growth, primary screen, luminescence, NIH3T3 host cells | T. cruzi beta-gal in NIH3T3, 90 h | inhibition, % (concentration not given with the values) | 300,000 tested, 1.4% active;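 active = mean inhibition across valid replicates above about 55%, limit read from the data; inconclusive = mean below that limit but half or more replicates reach it; inactive = mean below it, under half of replicates reach it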;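 note: signal also drops with host cell toxicity which is not excluded here; 0% = plate median of DMSO wells and 100% = zero luminescence signal; higher percent means less beta-gal luminescence so fewer parasites; stock transfer was 50 nL into about 50 µL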
Calb FLC = C. albicans growth inhibition with fluconazole, primary screen, CaCi-2 strain, Alamar Blue fluorescence. AID 1979, 2009. 300,000 tested, 0.57% active. C. albicans CaCi-2 (fluconazole-resistant clinical isolate) + fluconazole, 48 h. growth inhibition, % (no concentration beside the values);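 active = most replicates above 75%; inconclusive = exactly half above 75%; inactive = most below 75%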;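 note: all wells also contain fluconazole at 8 µg/ml as a sub-toxic cotreatment; 0% = median of DMSO wells and 100% = median of geldanamycin control wells; wells of about 8 µL received 7.5 nL stock; the first replicate is given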
Bfl-1 A1 inh = caspase 3/7 activation in MEF A1-2A-BIM cells, primary screen, A1 inhibitor project, cell-based, luminescence, HTS; AID 2462, 2010; caspase activation, % (no concentration beside the values); 330,000 tested, 0.066% active; Caspase-Glo 3/7 luminescence, 3 h; percent of clofoctol response, vehicle zero;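 active = over half of replicate activation scores above 10%, or exactly half above 10 with the replicate mean above 10; inconclusive = replicate mean below 10 yet half the replicates above 10; inactive = over half of replicates below 10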;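 note: wells of about 30 µL received 50 nL stock; many hits fall short of the cut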
RanGTP-Impb inh = inhibitors of RanGTP-importin-beta interaction, primary screen, biochemical, FRET, CFP-Ran, YFP-importin-beta, homogeneous. Ran GTPase (GTP-bound) - importin-beta complex. cell-free CFP-Ran/YFP-importin-beta FRET ratio. inhibition, % (test concentration not listed). 300,000 tested, 1.1% active. AID 2216, 2009;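 active = most replicates above 15%; inconclusive = exactly half above 15%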;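 note: 0% = DMSO wells and 100% = Ran loaded with GDP instead of GTP; wells of about 40 µL received 100 nL stock; the first replicate is given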
UCH37 inh = inhibitors of human UCH37 deubiquitinase, primary screen, biochemical, Ub-AMC cleavage, fluorescence. purified proteasome/UCH37. 330,000 tested, 0.33% active. inhibition, % (concentration not given with the values). AID 588478, 2011;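 active = mean of two replicates above 20%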;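 note: 0% = compound-free wells with enzyme and 100% = wells lacking proteasome; stock transfer was 100 nL into about 20 µL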
Target sequence (Q9Y5K5 whole entry, looked up): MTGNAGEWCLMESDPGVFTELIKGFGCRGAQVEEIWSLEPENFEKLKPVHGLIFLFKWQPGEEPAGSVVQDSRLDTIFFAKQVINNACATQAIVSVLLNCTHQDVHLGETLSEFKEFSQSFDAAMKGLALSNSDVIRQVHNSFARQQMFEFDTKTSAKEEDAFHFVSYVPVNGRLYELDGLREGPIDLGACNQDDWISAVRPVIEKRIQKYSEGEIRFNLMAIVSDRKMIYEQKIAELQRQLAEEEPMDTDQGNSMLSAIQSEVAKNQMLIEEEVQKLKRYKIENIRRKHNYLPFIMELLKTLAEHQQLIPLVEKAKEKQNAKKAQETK
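Reagent: Ub-AMC substrate; assay system: Proteasome-associated human UCH37 deubiquitinase; controls: no-proteasome and no-compound wells; read-out: % inhibition of Ub-AMC cleavage fluorescence; timing: 30 min preincubation with enzyme, 25 min cleavage at room temperature; signal: AMC fluorescence from Ub-AMC cleavage, excitation 355 nm, emission 460 nm; buffer or medium: Tris-HCl pH 7.4 plus ovalbumin, ATP-MgCl2, DTT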
The depositor's hits bear a star; ? = inconclusive; / = no result given.

SMILES	LANA-H2B inh	B2AR ag	Beta cell apopt	T cruzi inh	Calb FLC	Bfl-1 A1 inh	RanGTP-Impb inh	UCH37 inh
COc1ccc(C2/C=C\CN(C(=O)C3CC3)[C@H](Cc3ccccc3)C(=O)N2Cc2ccc(F)cc2)cc1 (stereo not given in full)	-5.2	-1	86*	13	17	-0.8	0.3	4.0
COc1cc(N)c(C(O)c2nccc3cc(OC)c(OC)cc23)cc1OC (stereo not given)	-4.1	3	3	6	-14	0.5	4.0	4.2
CN(C)S(=O)(=O)c1ccc(NC(=O)CN2CCOCC2)cc1	-0.9	6	-12	-14	6	-1.2	-3.1	1.2
C/C(CC(=O)Nc1cccc(Cl)c1Cl)=N\NC(=O)C(=O)NC1CCCCC1	2.9	-7	5	-6	-5	-0.2	2.5	/
CC(=O)Nc1cc(NC(C)=O)cc(C(=O)OC(C)C(=O)Nc2ccc(S(=O)(=O)N3CCCC3)cc2)c1 (stereo not given)	-2.2	-7	5	-8	-3	-0.2	?	-0.6
COc1ccc(NC(=O)Nc2ccc(OCC(=O)N3CCOCC3)cc2)cc1OC	-82	5	-3	-7	55	-0.2	0.6	1.8
Cc1ccc2[nH]c(=O)c(CN(CC3COCCO3)C(=O)Nc3ccccc3C)cc2c1 (stereo not given)	2.4	0	-3	7	15	0.9	0.9	-1.1
COC(=O)c1cc(C(=O)Nc2nnc(C3CC3)s2)cc([N+](=O)[O-])c1	-0.8	-3	1	6	4	0.6	0.9	1.3
Cc1ccc(NC(=O)c2sc(N)nc2-c2ccc([N+](=O)[O-])cc2)c(C)c1	1.3	-9	-7	?	11	0.2	-1.3	8.1
CC1Oc2ccccc2N(Cc2ccccc2F)C1=O (stereo not given)	-1.1	/	-10	-5	26	-0.9	1.2	3.2
Cc1nc(CC(=O)NNS(=O)(=O)c2ccc(F)c(Cl)c2)cs1	1.4	-4	-9	-3	2	0.6	1.1	5.4
NC(=O)CC(NC(=O)Cc1cccc2ccccc12)c1ccc(NCc2ccccn2)c([N+](=O)[O-])c1 (stereo not given)	-4.5	-11	-7	0	-5	-0.1	-0.9	1.0
COc1cc(O)oc1C=Nc1ccc(C(=O)O)cc1	4.8	4	0	-1	-6	-6.6	5.0	-11
Cn1c(NC(=O)c2ccc(F)cc2)nc2ccccc21	-2.0	-4	-9	-8	3	0.4	-3.8	1.5
COc1ccccc1OCCNC(=O)C(c1ccccc1)c1ccccc1	6.9	1	0	-5	-2	-0.3	-0.2	6.4
CCOC(=O)CC(=O)CSc1nc(N)c(C#N)c(-c2ccc(F)cc2)c1C#N	-3.8	9	-6	-2	23	0.7	?	-3.5
Cn1ncc2c(N3CCC(Cc4ccccc4)CC3)ncnc21	-1.4	-5	20	-14	10	0.4	0.6	4.4
O=C(NC1(C(F)(F)F)N=C(c2ccccc2)NC1=O)c1ccccc1 (stereo not given)	-3.5	1	2	-8	-4	1.3	0.6	2.6
C[C@H](CO)N1C[C@H](C)[C@@H](CN(C)S(C)(=O)=O)Oc2ccc(NC(=O)Nc3ccc(C(F)(F)F)cc3)cc2C1=O	-1.6	6	-8	/	/	-0.6	/	1.3
COc1ccc(Oc2ccccc2/C=C/C(=O)O)cc1	0.3	-1	-8	-7	39	0.2	-1.1	5.7
CCCCn1c(N)c(N2CCOCC2)c(=O)n(CC(=O)NCCc2ccccc2)c1=O	0.9	-1	-1	-20	-4	-0.6	8.3	6.5
O=C(c1ccc(CNc2c(N3CCCC3)c(=O)c2=O)cc1)N1CCc2ccccc2C1	-1.3	-12	-1	0	-2	0.5	1.4	7.9
CC(C)COP(=O)(OCC(C)C)C(Nc1ccccc1)c1ccc(F)cc1 (stereo not given)	-4.0	8	4	7	5	0.2	-0.2	1.9
NC(=O)COC(=O)c1ccc2c(c1)C(=O)N(Cc1ccco1)C2=O	7.1	-2	-5	-1	-1	0.9	3.4	6.1
CCCN(CCc1ccccc1)C1CCc2c(O)cccc2C1 (stereo not given)	-0.5	57*	1	-19	-26	0.7	2.8	0.4

Later entries
SMILES	LANA-H2B inh	B2AR ag	Beta cell apopt	T cruzi inh	Calb FLC	Bfl-1 A1 inh	RanGTP-Impb inh	UCH37 inh
CCN(Cc1ccccc1)C1CCN(Cc2ccc(SC)cc2)CC1	-2.9	-5	2	13	3	1.1	2.0	1.0
Cc1ccc(NC(=S)NC(=O)/C=C/c2ccc(Cl)cc2)cc1	0.6	-1	/	-18	-11	-0.2	2.9	1.6
CC(=O)c1sc(NC(=O)CCCOc2ccc(Cl)cc2)nc1C	0.6	0	2	/	23	-0.7	?	1.9
O=C(COc1ccccc1[N+](=O)[O-])Nc1cccc(C(=O)Nc2ccccc2C(=O)O)c1	0.6	16	4	-23	16	0.5	0.5	5.5
COc1ccc(C(=O)OCC(=O)Nc2nc3c(F)c(F)c(F)cc3s2)cc1OC	-3.2	-4	-5	-10	19	-1.2	-2.9	2.3
CC(C)c1ccc(C(C(=O)NC2CCCCC2)N(C(=O)c2csnn2)C2CC2)cc1 (stereo not given)	-2.7	3	3	25	40	0.1	2.6	3.1
COC(=O)[C@@H](NC(=O)NCc1cccs1)C(C)C	1.1	-8	1	3	-7	0.2	0.1	-2.3
CC(=O)Nc1ccc(CN2CCCC(CCC(=O)NCc3ccccc3F)C2)cc1 (stereo not given)	6.3	-3	-4	23	23	1.2	0.3	0.9
CC(=O)Nc1c(C(=O)N2CCCCCC2)cnn1-c1ccccc1	8.3	-1	1	0	2	0.9	4.1	2.4
COc1ccc(F)cc1S(=O)(=O)N1CCCN(S(=O)(=O)c2cc(F)ccc2OC)CC1	-3.2	13	-1	4	-1	0.2	-2.0	0.6
COc1ccccc1OCc1ccc(C(=O)N2CCN(C)CC2)o1	-1.2	-8	-1	4	-2	-0.2	1.2	3.6
Cc1c(C(=O)O)sc2nc3n(c(=O)c12)CCC3	-1.8	6	-6	3	3	-0.1	-4.6	3.5
COc1ccc(CN2CCCC(C(=O)c3ccc(SC)cc3)C2)cc1Cn1cccn1 (stereo not given)	-3.6	8	3	27	-8	0.6	9.0	/
COc1ccccc1N1CCN(S(=O)(=O)c2cc(Br)cnc2N)CC1	2.1	-6	5	21	0	0.1	-0.4	0.0
Nc1c(-c2ccccc2)c(CN2CCOCC2)nn1-c1ccc(F)cc1	-2.1	-2	-7	-12	3	-0.8	-1.7	1.5
Cc1ccc(NC(=O)Cn2nc([N+](=O)[O-])c(Br)c2C)cc1C	-0.6	-4	-6	18	?	0.5	-2.9	2.8
O=[N+]([O-])c1cccc(-c2nc(-c3ccncc3)no2)c1	4.0	3	0	8	3	-4.8	1.9	0.6
CN(C)CCNC(=O)COc1cccc(Cl)c1	2.8	-3	-3	7	3	0.6	-0.9	1.2
CCS(=O)(=O)CCSc1nc2c(cc1C#N)CCCC2	9.6	-22	2	6	7	0.2	4.0	3.1
O=C(c1ccc2c(=O)n(C3CCCC3)c(=S)[nH]c2c1)N1CCN(C2CCCCC2)CC1	0.8	-6	-6	33	10	0.5	-0.7	3.7
Cc1ccccc1-c1nc(CS(=O)(=O)CC(=O)N2CCc3ccccc3C2)c(C)o1	-2.8	-3	-6	6	4	0.7	-2.2	12
CCCN(C(=O)COC(=O)COc1c(C)cccc1C)c1c(N)n(Cc2ccccc2)c(=O)[nH]c1=O	/	1	1	-7	-4	-0.5	-0.5	1.6
CN(C)C(=O)c1ccc(NC(=O)COc2cccc(Oc3ccccc3)c2)cc1	-0.5	-7	-1	-9	46	-0.2	-0.6	4.3
Cc1cccc(CN2CCN(Cc3cccc4nonc34)CC2CCO)n1 (stereo not given)	2.5	4	-5	4	-20	-0.2	2.3	2.8
CCOc1ccccc1NC=C1C(=O)OC2(CCCCC2)OC1=O	4.6	-6	-27	-7	-3	1.1	1.0	-16

Later entries
SMILES	LANA-H2B inh	B2AR ag	Beta cell apopt	T cruzi inh	Calb FLC	Bfl-1 A1 inh	RanGTP-Impb inh	UCH37 inh
CN(C(=O)c1ccc(F)cc1)c1ccccc1C(=O)NCc1ccccc1	-6.6	-1	2	0	2	1.0	1.0	3.6
Cc1cc(C)n(S(=O)(=O)c2ccc(C)c(C)c2)n1	-1.8	1	9	-6	2	2.6	1.1	3.7
COC(=O)COc1cccc(NC(=O)C(c2ccccc2)c2ccccc2)c1	3.9	8	/	-9	-1	0.9	6.4	1.2
O=C(CSc1ccc(-c2ccccn2)nn1)NCc1ccc(Cl)cc1	4.4	-15	-6	?	-9	0.5	4.4	5.6
COCCNC(=O)CSc1nc2sc(C)c(C)c2c(=O)n1-c1ccccc1	-2.1	7	-5	10	-12	0.4	3.9	4.7
O=C(COC(=O)c1cccs1)Nc1ccc(Cl)cn1	-0.8	3	-1	/	/	0.1	/	2.8
COc1n[nH]c(C(=O)Nc2cc(F)ccc2C)c1[N+](=O)[O-]	-2.9	2	-2	-4	?	-0.3	8.0	8.4
O=C(c1ccncc1)N1CCN(C2CCC(c3ccccc3)CC2)CC1 (stereo not given)	-3.5	4	-2	8	4	0.6	3.8	1.6
CC1Cn2c(nnc2-c2ccccc2O)S1 (stereo not given)	-0.2	5	-12	-11	12	-0.5	4.4	0.1
CCOC(=O)c1cccnc1SC(CC)C(=O)NCc1ccco1 (stereo not given)	1.1	-10	-2	-6	17	0.5	?	-0.1
FC(F)(F)c1cccc(NC(=S)NC(c2ccccc2)c2ccccc2)c1	2.2	7	44	60*	-34	0.2	-1.4	-6.5
CCC(CO)(CO)N(CC(=O)Nc1ccc(OC)cc1)CC(=O)Nc1ccc(OC)cc1	0.1	7	7	3	-3	1.7	28*	5.9
O=c1c2c3c(sc2nc(NCCO)n1-c1ccccc1)CCCC3	-1.2	7	/	38	2	-0.3	1.7	-2.0
CCC1(c2ccc(F)cc2)NC(=O)N(CC(=O)NC2CCCCCC2)C1=O (stereo not given)	-3.7	-13	3	/	/	0.8	/	-1.4
COc1ccccc1C(=O)NC(=O)CSc1cccc[n+]1[O-]	3.0	6	-8	-19	-2	0.6	4.1	1.8
O=C(CSC1=NCCN1)NC1CCCCCC1	-0.5	-2	-15	10	-2	2.0	0.1	5.2
CC1CCCN(CCCOc2ccccc2-c2ccccc2)C1 (stereo not given)	/	14	/	-2	-2	/	-2.0	1.0
O=C(NCC1CCCO1)c1ccc(Cl)c(F)c1F (stereo not given)	-4.4	3	-3	-5	0	-0.2	2.6	-0.3
CC(C)(C)OC(=O)C[C@@H]1C/C=C\C[C@@H](CC(=O)NCCO)C(=O)N[C@H](C(C)(C)C)COC1=O	2.9	-2	-9	/	/	-0.3	/	-2.0
O=C(NCc1cccc(F)c1)c1cccc2c1C(=O)c1ccc(Cl)cc1S2(=O)=O	-1.3	-6	5	/	/	0.1	/	3.9

This is a random part of the collection; any-hit rate near 4.3%.
